High-throughput results: PubChem BioAssay, several laboratories
Mtb growth: M. tuberculosis H37Rv growth inhibitors, H37Rv strain (AID 1626); hit rate 0.95% among 220,000; M. tuberculosis H37Rv growth inhibition; higher % means a stronger effect; one-dose inhibition, % at 10 µM; IC50 in µM for titrated hits;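 active = confirmed in a dose series; inconclusive = inhibition above 80% but not taken into the dose series; inactive = below 80% or under 30% at every dose of the series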;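 note: bacteria incubated seven days before Alamar blue readout; 0% = bacteria only wells and 100% = bacteria with antibiotic wells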
RecA splice inh: blocks M. tuberculosis RecA intein splicing; AID 2221; P9WHJ3; hit rate 0.75% among 290,000; cell-free RecA intein splicing, fluorescence; inhibition, %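 (about 9 µM by stock and volumes)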; in the data active = inhibition above about 30%; inconclusive = no clear call, values can overlap the other calls;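 note: 0% = vehicle wells and 100% = reference inhibitor control wells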
Target sequence (P9WHJ3 whole entry, looked up, canonical isoform): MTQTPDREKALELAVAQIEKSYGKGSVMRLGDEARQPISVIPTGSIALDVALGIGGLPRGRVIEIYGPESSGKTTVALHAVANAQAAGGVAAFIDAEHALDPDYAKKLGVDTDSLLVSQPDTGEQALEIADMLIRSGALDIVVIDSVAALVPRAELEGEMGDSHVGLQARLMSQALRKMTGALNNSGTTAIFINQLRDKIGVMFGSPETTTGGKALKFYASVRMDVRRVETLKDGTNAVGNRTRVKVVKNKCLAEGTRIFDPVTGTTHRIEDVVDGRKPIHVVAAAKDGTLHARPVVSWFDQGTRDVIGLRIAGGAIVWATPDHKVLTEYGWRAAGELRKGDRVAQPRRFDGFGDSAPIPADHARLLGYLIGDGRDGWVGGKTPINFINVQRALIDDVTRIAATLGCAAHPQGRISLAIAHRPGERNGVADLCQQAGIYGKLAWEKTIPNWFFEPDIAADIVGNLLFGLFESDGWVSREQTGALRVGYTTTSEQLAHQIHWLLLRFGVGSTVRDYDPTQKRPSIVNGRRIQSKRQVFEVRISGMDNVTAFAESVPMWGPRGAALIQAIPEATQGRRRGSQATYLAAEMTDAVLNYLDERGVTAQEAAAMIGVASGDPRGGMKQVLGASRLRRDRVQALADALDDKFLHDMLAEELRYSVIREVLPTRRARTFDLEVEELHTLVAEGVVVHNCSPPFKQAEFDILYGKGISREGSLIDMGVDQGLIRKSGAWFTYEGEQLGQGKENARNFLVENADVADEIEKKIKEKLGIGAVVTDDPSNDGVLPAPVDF
YopH PTP inh: blocks Yersinia enterocolitica YopH tyrosine phosphatase | fluorescence Ex485/Em525 | inhibition, %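 (about 10 µM by stock and volumes)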 | hit rate 0.16% among 140,000 | AID 898;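 active = inhibition of 50% or more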;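 note: controls were vehicle for no effect and minimum signal wells for full effect; inactives centre near -20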
Arbovirus inh: antivirals against arbovirus infection | hit rate 0.37% among 200,000 | AID 1251 | inhibition, % at 10 µM | arbovirus infection cell-based antiviral screen;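 active = inhibition from about 30%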;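 note: bluetongue infection of BSR cells; cell survival read as ATP light after 72 h; 0% = infected wells without compound and 100% = uninfected wells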
Mtb betalactam: beta-lactam sensitization of Mtb H37Rv | M. tuberculosis H37Rv growth with meropenem, percent inhibition; hits of this screen are not shown here | inhibition, % at 25 µM | hit rate 0.27% among 330,000;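 active = about 74% or more and at least 40 points above the plate without the antibiotic, then above 30% in a dose series; inconclusive = first-round hits that could not be retested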;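 note: growth measured after seven days incubation then overnight dye step; 0% = bacteria only wells and 100% = bacteria with antibiotic; twin plates without the antibiotic show which effects depend on it; some results filed as inactive read as strong as hits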
Arbovirus inh repeat: recorded beside Arbovirus inh, whose call it bears; inhibition, %; measured here: 10K subset replicate screen; many hits read low in the repeat;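 first of two repeat runs on a subset; 0% = infected and 100% = uninfected wells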
Numbers without * were called inactive; ? = inconclusive; nt = no result given. The list is partial, so the mix of outcomes need not match the whole.

SMILES | Mtb growth | RecA splice inh | YopH PTP inh | Arbovirus inh | Mtb betalactam | others
CCOC(=O)C1CN(S(=O)(=O)c2cccc(C(F)(F)F)c2)c2cc(CC(=O)OC)ccc2O1 (stereo not drawn) | -3.3% | -1.5 | -15.2 | 2.3 | -11.0
Cc1c(Cl)cccc1NC(=O)CSc1nc(=O)n(CCCN2CCOCC2)c2c1CCC2 | nt | 2.1 | nt | nt | -4.7
Cc1ccc(S(=O)(=O)NNC(=S)Nc2c(Cl)cccc2Cl)cc1 | 9.2% | nt | nt | nt | 2.5
CCOC(=O)N1CCC(NC(=O)C2CCCN(Cc3nc(-c4ccc(CC)cc4)oc3C)C2)CC1 (stereo not drawn) | nt | 2.1 | nt | nt | 81.5
Cc1nn(Cc2ccccc2)c(C)c1C(=O)O | -8.7% | 0.4 | nt | 11.3 | -3.9
O=S(Cc1ccc(Cl)cc1)CC(O)COCc1ccc(Cl)cc1 (stereo not drawn) | 0.7% | 2.4 | -35.9 | 7.0 | -7.5
COc1ccc(Cc2noc(-c3ccc([N+](=O)[O-])cc3)n2)cc1OC | 4.6% | 2.7 | nt | nt | -1.2
O=C1CC(N2CCN(c3ccc(F)cc3)CC2)C(=O)N1c1ccc(F)cc1 (stereo not drawn) | nt | 0.3 | nt | nt | 1.0
C#CCOCCOCCOCCNc1nc(N2CCN(C(=O)C([C@@H](C)CC)n3cc(C(N)Cc4ccc(O)cc4)nn3)CC2)nc(N2CCN(C(=O)[C@H](CCC(=O)O)n3cc(C(N)CO)nn3)CC2)n1 (stereo partly drawn) | -10.3% | -0.7 | nt | 5.0 | -11.2
COc1ccc(C(C)=O)c(Oc2cc(NN3CCCCC3)c([N+](=O)[O-])cc2[N+](=O)[O-])c1 | nt | -0.2 | nt | nt | -16.4
CCN1CCN(CCOCCOc2ccccc2-c2ccccc2)CC1 | 1.1% | -1.0 | nt | -31.1 | 2.3
Cc1nc(N)sc1C(=O)N/N=C/c1ccccc1[N+](=O)[O-] | 1.5% | -2.0 | nt | 16.3 | 4.9
CCOc1ccc(NC(=O)C2CCCN2S(=O)(=O)c2ccc3c(c2)C(C)(C)C(=O)N3C)cc1 (stereo not drawn) | nt | 1.0 | nt | nt | -3.5
Cc1nn(CCCC(=O)Nc2cnn(Cc3ccc(F)cc3)c2)c(C)c1[N+](=O)[O-] | 3.2% | 2.6 | nt | nt | 7.1
OCCCc1nc2n(n1)C(c1cccs1)C=C(c1ccc(Br)cc1)N2 (stereo not drawn) | 17.1% | -386.0 | -16.8 | -0.2 | 1.6
CN(CC(=O)Nc1ccc(F)cc1)C(=O)C1CC(=O)N(Cc2ccccc2)C1 (stereo not drawn) | nt | -3.6 | nt | nt | -11.3
O=C1N(c2ccccc2)C[C@@H]2C[C@@H](c3cccc4c3OCO4)N3CCC[C@@]123 | 2.3% | 0.1 | nt | 4.8 | -3.6
Cc1nc(N2CCN(Cc3ccc4c(c3)OCO4)CC2)c2cc(-c3ccccc3)sc2n1 | 5.39µM* | 8.6 | nt | 1.8 | 98.3
COc1ccc(S(=O)(=O)NNC(=O)C23CC4CC(CC(C4)C2)C3)cc1[N+](=O)[O-] | nt | -1.5 | nt | nt | 1.3
Cc1ccc(CN=Cc2[nH]c3ccc(Br)c(Cl)c3c2O)cc1 | 5.3% | 74.7* | 6.0 | -6.7 | 12.4
CCN1C(=O)C(CC(=O)Nc2ccc(C)cc2C)Nc2cc(S(=O)(=O)N(C)C)ccc21 (stereo not drawn) | 0.6% | -2.7 | nt | -7.8 | -1.3
Cc1cccn2c(=O)c(C=O)c(N3CCCCC3)nc12 | 2.5% | 6.3 | nt | 5.7 | -2.2
O=S(=O)(NCCc1ccccn1)c1cccs1 | 11.6% | 0.1 | -23.1 | -4.6 | -8.1
CC(C)CNS(=O)(=O)c1cc(C(=O)OCC(=O)N2CCOCC2)c(Cl)cc1Cl | nt | 0.4 | nt | nt | 3.2
O=C(CSC1=Nc2ccccc2C2=NC(c3ccccc3)C(=O)N12)NC1CCCCC1 (stereo not drawn) | 72.4% | -1.0 | -29.8 | -5.2 | 98.0
CSc1nc(N2CCN(C)CC2)c2ccccc2n1 | 3.0% | 0.8 | nt | -2.9 | 0.8
CC(NC(=O)COC(=O)c1ccc([N+](=O)[O-])s1)c1ccccc1 (stereo not drawn) | 16.5% | -0.9 | 35.5 | -4.0 | 92.5
CCCCOC(=O)C(C)Sc1n[nH]c(=O)[nH]c1=O (stereo not drawn) | 1.7% | 5.2 | nt | -0.3 | -2.6
COc1cccc(C2N(c3ccccc3)CCN2c2ccccc2)c1OC | 7.6% | 0.2 | nt | -0.7 | 3.4
CCC(OC(=O)c1cccs1)C(=O)NCc1ccc2c(c1)OCO2 (stereo not drawn) | -10.0% | 2.3 | -1.1 | -5.4 | 3.2
Cc1ccc(S(=O)(=O)N2CCC(C)CC2)cc1[N+](=O)[O-] | -1.0% | 0.4 | nt | -0.6 | nt
CC(C)(C)C(=O)Nc1ccc(C(=O)Nc2cccnc2)cc1 | 0.5% | -0.4 | 10.6 | 12.9 | -13.6
CCc1noc(C)c1C(=O)N1CCCSC1=Nc1ccccc1OC | nt | 0.6 | nt | nt | -1.9
O=C(NC1CCCCC1)c1ccc2c(c1)OCCO2 | nt | -0.4 | nt | nt | -12.0
CSCCC(NC(=O)c1ccccc1)C(=O)NCCc1ccccc1 (stereo not drawn) | nt | 0.1 | nt | nt | 4.9
COc1ccc(Cl)cc1NC(=O)CCCNC(=O)c1ccc(Cl)cc1 | nt | 3.3 | nt | nt | 0.7
Cc1ncc(CO)c(CO)c1O | nt | -2.6 | nt | nt | -4.3
Cn1cnc(S(=O)(=O)NCc2ccccc2)c1 | -2.3% | 2.6 | -20.6 | 7.2 | -4.9
COc1ccccc1CCn1c(N)c(C#N)c2nc3ccccc3nc21 | 11.8% | -2.3 | -33.7 | -2.6 | 5.4
CC1CCN(CCCCOc2ccc(C(C)(C)C)cc2)CC1 | nt | 0.1 | nt | nt | -5.8
CC(C)[C@H](NC(=O)OC(C)(C)C)c1nnc(SCC(=O)Nc2ccc(Br)cc2)o1 | 0.3% | 2.1 | -119.0 | 5.5 | 4.2
COC(=O)c1sc(N2C(=O)C(=O)/C(=C(/O)c3ccc(C)cc3)C2c2ccco2)nc1C (stereo not drawn) | -6.6% | 6.4 | nt | nt | 1.6
NS(=O)(=O)c1ccc(NN=C2CCCCC2)c([N+](=O)[O-])c1 | -4.3% | 2.1 | -22.9 | -1.5 | -0.3
CCOc1cc(N2CCOCC2)c(OCC)cc1NC(=O)COC(=O)c1ccccc1C | 11.4% | -1.4 | -26.1 | 7.7 | 61.1
Cc1ccc(S(=O)(=O)CCC(=O)NCCc2ccccc2)cc1 | nt | -7.7 | nt | nt | -7.4

Structures from the list above that contain a tert-butyl group (three):
SMILES | Mtb growth | RecA splice inh | YopH PTP inh | Arbovirus inh | Mtb betalactam | others
CC(C)(C)C(=O)Nc1ccc(C(=O)Nc2cccnc2)cc1 | 0.5% | -0.4 | 10.6 | 12.9 | -13.6
CC1CCN(CCCCOc2ccc(C(C)(C)C)cc2)CC1 | nt | 0.1 | nt | nt | -5.8
CC(C)[C@H](NC(=O)OC(C)(C)C)c1nnc(SCC(=O)Nc2ccc(Br)cc2)o1 | 0.3% | 2.1 | -119.0 | 5.5 | 4.2

Next records follow:
SMILES | Mtb growth | RecA splice inh | YopH PTP inh | Arbovirus inh | Mtb betalactam | others
CC(=O)c1sc(NC(=O)c2ccco2)nc1-c1ccccc1 | 4.9% | -0.5 | -38.0 | -9.2 | -5.5 | Arbovirus inh repeat=-1.7
O=C(CSc1ncnc2c1oc1ccccc12)NCc1ccc(F)cc1 | 10.9% | -0.9 | -25.6 | -8.7 | -4.8 | Arbovirus inh repeat=-13.4
COc1ccc(C)cc1NC(=O)CN1CCN(C/C=C/c2ccccc2)CC1 | -3.7% | 1.3 | -17.9 | 3.8 | 99.8
FC(F)(F)c1cnc(-n2cc[nH]c2=S)c(Cl)c1 | 2.0% | -1.6 | -19.4 | -1.5 | 27.2
CC(=O)N1c2ccccc2C(C)(C)C2CCC(C)CC21 (stereo not drawn) | -8.0% | 2.5 | -4.3 | -2.9 | 7.0
Cc1ccc(C(=O)NC(=S)NNC(=O)CCN2CCOCC2)cc1 | ? | -4.9 | nt | 14.6 | 13.2
Cc1cc(Cl)c(S(=O)(=O)N2CCN(c3ccc(F)cc3)CC2)cc1OCC(N)=O | 0.4% | 8.9 | -20.1 | 0.4 | -5.8
Cc1ccc(CNC(=O)COC(=O)c2cnccn2)cc1 | -3.6% | -3.2 | -124.1 | 16.1 | -3.5
COc1cccc(-c2nn(C)c3sc(C(=O)NCCCN(C)Cc4ccccc4)cc23)c1 | nt | 1.3 | nt | nt | 7.1
CCC1=Nc2cc(C(=O)NCc3cccnc3)ccc2Sc2ccc(C)cc21 | -10.7% | 6.3 | nt | nt | -5.8
COc1ccc(Nc2nc(C)cc(C)c2C(N)=O)cc1 | -9.5% | -1.5 | -15.1 | 5.8 | -10.0
CC1CCc2c(sc(NC(=O)COC(=O)c3ccc(O)cc3)c2C#N)C1 (stereo not drawn) | 2.0% | 0.2 | nt | 14.5 | 64.1
COC(=O)COc1ccc(S(=O)(=O)NCc2ccccn2)cc1 | nt | 0.7 | nt | nt | -5.6
O=C(NC1CC1)c1cc(-c2ccco2)nc2ccccc12 | -13.3% | 1.7 | nt | nt | nt
CS(=O)(=O)Nc1ccc(C(=O)NCc2ccc3c(c2)OCO3)cc1 | -5.0% | 0.2 | -23.2 | 9.1 | -0.5
Cc1ccc(-c2csc3nc(-c4ccncc4)[nH]c(=O)c23)cc1 | 3.3% | -1.8 | nt | nt | 0.8
NS(=O)(=O)c1ccc(NC(=O)Cc2cccs2)cc1 | nt | 1.9 | nt | nt | -1.6
CCn1c(CCCOc2ccc(Cl)cc2Cl)n[nH]c1=S | 0.6% | 0.5 | nt | -10.9 | -19.0
COCCNC(=O)CNC(=S)N(CCCN1CCOCC1)Cc1cccs1 | 2.9% | -1.0 | nt | 3.2 | -3.6
CCCCN(C(=O)CCC(=O)Nc1cc(C)on1)C(C(=O)NC1CCCC1)c1ccc(OC)cc1 (stereo not drawn) | nt | -0.6 | nt | nt | 3.5
COC(=O)c1ccc(COC(=O)Cc2n[nH]c(=O)c3ccccc23)cc1 | 4.9% | -2.0 | nt | 4.2 | -6.0
O=C(NCCc1ccccc1)c1cccc(N2CCCC2=O)c1 | nt | -2.2 | nt | nt | 1.1
CN(CCOc1ccc(Cl)cc1)C(=O)c1cc(-c2ccco2)nc2ccccc12 | nt | 19.4 | nt | nt | -5.2
CSc1nc(-c2ccccc2)nc(SC)c1C(C)=O | 10.6% | -2.4 | -63.0 | -0.7 | 9.2
Cc1noc(C)c1C(c1ccccc1)c1ccccc1 | -4.9% | 5.9 | -9.6 | -3.8 | -4.8
Cc1nc2ncnn2c(N2CCN(C(=O)c3cccc(F)c3)CC2)c1C | 2.5% | -2.5 | -16.4 | 4.7 | -5.8
COc1ccc(N(C(=O)c2ccc(S(=O)(=O)N3CCOCC3)cc2)C2C=CS(=O)(=O)C2)cc1 (stereo not drawn) | -7.0% | 1.9 | -51.2 | -2.9 | -2.0
CCC(=O)c1ccc2c(c1)OCCO2 | 2.2% | 1.1 | nt | nt | -0.1
CN1CCN(c2ncc(C=O)s2)CC1 | 2.2% | 1.6 | nt | 2.8 | 5.8
COc1cc(OC)cc(C(=O)NC(=S)N2CCN(c3ccc(C(F)(F)F)cc3[N+](=O)[O-])CC2)c1 | 48.8% | -3.5 | -16.7 | 0.6 | 48.2
COc1cccc2c1OCC(C(=O)NCc1ccc(Cl)cc1Cl)=C2 | 4.1% | 8.2 | -0.3 | 16.6 | 10.4
COc1ccc(/C=N/Nc2cc(N3CCCC3)nc(N3CCCC3)n2)cc1 | ? | 4.2 | nt | -37.9 | 96.3
Cc1ccc(C)c(NC(=O)Cn2nc(-c3ccccc3)nc2-c2ccccc2)c1 | -2.7% | -1.0 | -22.4 | -0.4 | 12.3
Cc1oc(-c2ccccc2F)nc1CN1CCC(C(=O)NCc2cccnc2)CC1 | -3.0% | 1.7 | -36.5 | 6.3 | 3.5
Cc1cc(NS(=O)(=O)c2ccccc2)cc(Cl)c1O | -0.6% | nt | -31.3 | -10.9 | -17.9 | Arbovirus inh repeat=4.9
CCOc1ccc(-c2nn(-c3ccccc3)cc2/C=C2\SC(=S)N(C3CCS(=O)(=O)C3)C2=O)cc1 (stereo not drawn) | -3.9% | nt | -9.3 | 4.9 | -2.5
